Screening data from PubChem BioAssay.
Vaccinia Venus: vaccinia inhibition (Venus reporter); Vaccinia virus Venus reporter expression, fluorescence; Potency, µM (titrated, usually from 36.5 µM), inactives show at the top dose activity change, negative = inhibition, hits mostly inhibitors; actives 0.46% (n = 330,000); AID 720580; active means well fitted inhibition curve with a large enough effect; inconclusive means small, poorly fitted or top-dose-only effect; inactive means no such curve, though single readings can be large or run the other way; tested in A549 cells; also: nearly all actives have a fitted effect of over 30% in size; inactives centre near -10
Vaccinia mCherry: vaccinia inhibition (mCherry reporter). Potency, µM (series often up to 36.5 µM), for the others: top-dose activity change, negative = inhibition, hits mostly inhibitors. actives 0.63% (n = 310,000). Vaccinia virus mCherry reporter infection, fluorescence; about a quarter of the inactives have no number. AID 720579; active = well fitted inhibition curve with a large enough effect; inconclusive = small, poorly fitted or top-dose-only effect; inactive = no such curve, though single readings can be large or run the other way; tested in A549 cells; also: nearly all actives have a fitted effect of over 35% in size; inactives centre near -10
* marks the source's active call; other numbers are inactive results; i = inactive; ? = inconclusive; · = not tested or not shown; & = joins results of further samples; [ ] = remark or other dose. % is scaled to controls: 0 for no effect and ±100 for the full control effect; potency is read from the fitted curve at half-maximal effect.

| Structure | Vaccinia Venus | Vaccinia mCherry |
| --- | --- | --- |
| Nc1ccccc1C(=O)OCCc1ccccc1 | -11.6% | -0.2% |
| COc1ccc2[nH]c3c(c2c1)CCN=C3C | -21.1% | i |
| Cc1cc(C)cc(OCC(=O)OCC(=O)N(C)CC(=O)Nc2ccc(F)cc2)c1 | -4.5% | -9.5% |
| O=C(Nc1cccc(C(F)(F)F)c1)NC1CCCCC1 | ? | · |
| COc1ccc(N2CCN(S(=O)(=O)/C=C/c3ccccc3)CC2)cc1 | -10.8% | -9.5% |
| COc1ccc2[nH]c3c(NCCN(C(C)C)C(C)C)ncnc3c2c1 | -6.3% | · |
| Cn1cc(C2OC(=O)c3ccccc32)c2ccccc21 (configuration not stated) | -14.9% | ? |
| Cc1oc(-c2ccccc2)nc1Cn1cccc1C1=NC(c2ccccc2)CO1 (configuration not stated) | -32.8% | ? |
| CC12CC(c3ccccc3O1)C(/C(N)=N/NC(=O)c1ccc(F)cc1)C(=O)N2 (configuration not stated) | -11.1% | ? |
| CN(C(=O)COC(=O)c1nc(Cl)ccc1Cl)C1CCS(=O)(=O)C1 (configuration not stated) | -13.0% | -19.7% |
| O=C(COc1ccc2ccccc2c1)N/N=C/C1CC=CCC1 (configuration not stated) | -9.0% | -12.6% |
| Cc1cc(C)cc(N(CC(=O)NCc2ccco2)S(=O)(=O)c2c(C)noc2C)c1 | -0.5% | i |
| CCOC(=O)c1c(NC(=O)c2cc(-c3cccc(Cl)c3)on2)sc(C)c1C | 1.6% | -12.8% |
| COc1ccc(S(=O)(=O)N2CCOCC2)cc1NC(=O)c1ccc(Cl)cc1 | -11.8% | i |
| CN(C)c1ccc(C=c2c3ccccc3n3c2c2ccccc2[n+]3C)cc1 | ? | ? |
| CCOC(=O)C(=CNc1ccc(O)c(C(=O)OC)c1)C(=O)OCC | -8.8% | -11.4% |
| CC1CCN(S(=O)(=O)c2ccc3c(c2)N(CC(=O)NCCCN(Cc2ccccc2)C(C)C)C(=O)CO3)CC1 | ? | -28.6% |
| CC(=O)Nc1ccc2c(c1)ncn2C1CCCCC1 | -4.1% | -15.0% |
| COc1cc(C2c3cc4c(cc3OC(NCc3ccccc3)C2C)OCO4)cc(OC)c1OC (configuration not stated) | -28.2% | ? |
| Cc1ccc(CN2CCN(Cc3ccc(-n4cccn4)cc3)CC2CCO)cc1 (configuration not stated) | -12.9% | -11.6% |
| COc1ccc(Br)cc1C(=O)Nc1cccc(C)c1C | -13.8% | i |
| CCc1ccc(-c2nn(CC(=O)Nc3ccccc3C)c3c2cnc2ccc(C)cc23)cc1 | 7.4% | -9.3% |
| CCCN(CCC)CCCNC(=O)Cn1cnc2sc(C)c(S(=O)(=O)N3CCCCC3)c2c1=O | -6.1%&-8.1% | -9.0%&-10.9% |
| COC(=O)C1=CN(c2ccc(N3CCOCC3)cc2)C(N)=C(C#N)C1c1cccc(F)c1 (configuration not stated) | -0.8% | ? |
| Oc1ccc(-c2cccnc2)cc1CNC1CN2CCC1CC2 (configuration not stated) | -16.0% | -19.3% |
| O=C(COc1ccc(Br)cc1Br)NN1C(=O)c2ccccc2C1=O | -12.4% | -14.4% |
| CCC(=O)Nc1cccc(C(=O)Nc2nccs2)c1 | -4.6% | -2.6% |
| COc1ccc(C(CC(=O)Nc2ncccc2C)N2Cc3ccccc3C2=O)cc1 (configuration not stated) | -5.0% | -6.1% |
| CN(C)S(=O)(=O)c1cccc(NC(=O)COC(=O)/C=C/c2ccc([N+](=O)[O-])cc2)c1 | -3.2% | -13.2% |
| Cc1cc(S(=O)(=O)Nc2cccc(Cl)c2)c(C)s1 | -18.1% | i |
| CCOC(=O)c1c(C)c(-c2ccccc2)n(CC(=O)NCCc2ccc(C)cc2)c1C | -3.1% | 1.1% |
| Cc1ccc(CN2CCNC(=O)C2CC(=O)N2CCN(c3ncccn3)CC2)o1 (configuration not stated) | 3.5% | i |
| CCCCCCn1c(COc2ccccc2F)nnc1SCC(=O)NC1CCS(=O)(=O)C1 (configuration not stated) | -15.5% | -0.8% |
| CCOc1ccc2nc(N(CCCN(C)C)C(=O)c3ccc(S(=O)(=O)N4CCc5ccccc5C4)cc3)sc2c1 | -28.6% | ? |
| CC1(C)CC(=O)C(C(c2cc([N+](=O)[O-])ccc2Cl)C2C(=O)CC(C)(C)CC2=O)C(=O)C1 | 12.4% | i |
| CN1CCN(c2nc3c(c(=O)n(C)c(=O)n3C)n2CCSc2nnnn2-c2ccccc2)CC1 | -10.9% | i |
| Nc1ncc(Br)cc1S(=O)(=O)NCCc1ccccc1 | -20.6% | i |
| CCCC1=Nc2cc(C(=O)NCCCN(CC)CC)ccc2Sc2ccccc21 | -11.9% | -11.5% |
| CCC1([N+](=O)[O-])COC(c2ccc(OC)cc2)OC1 (configuration not stated) | -14.8% | -13.4% |
| O=C(CSc1ccccc1)Nc1ccc2c(c1)OCO2 | -12.8% | -8.4% |
| CCOc1ccc(-c2cccc(NC(=O)c3ccc(Br)o3)c2)nn1 | -8.2% | -11.0% |
| COc1ccc(CCNc2ccc(C(CC(N)=O)NC(=O)c3ccc(Br)cc3)cc2[N+](=O)[O-])cc1 (configuration not stated) | 12.6µM* | -19.2% |
| Cc1nn(Cc2ccccc2)c(C)c1NS(=O)(=O)c1ccccc1 | -5.8% | i |
| CC(C)CCn1nnnc1CN1CCN(C(=O)c2ccco2)CC1 | -8.4% | i |
| CCN(CC)CCN1C(=O)c2ccccc2NC1c1ccc(OC)c(COc2ccc(NC(C)=O)cc2)c1 (configuration not stated) | -5.5% | 30.0% |
| COc1ccc([N+](=O)[O-])cc1NC(=O)c1ccc(N(Cc2ccccc2Cl)S(C)(=O)=O)cc1 | -8.8% | i |
| O=C(CCN1CCOCC1)N/N=C/c1cc([N+](=O)[O-])ccc1OC(F)F | ? | ? |
| O=C(CN1C(=O)C2C3C=CC(C4CC34)C2C1=O)NCc1ccco1 (configuration not stated) | -9.7% | -2.1% |

4 of the compounds above, field by field:
> CN1CCN(c2nc3c(c(=O)n(C)c(=O)n3C)n2CCSc2nnnn2-c2ccccc2)CC1
- Vaccinia Venus: -10.9%
- Vaccinia mCherry: i
> Cn1cc(C2OC(=O)c3ccccc32)c2ccccc21 (configuration not stated)
- Vaccinia Venus: -14.9%
- Vaccinia mCherry: ?
> COc1ccc(C(CC(=O)Nc2ncccc2C)N2Cc3ccccc3C2=O)cc1 (configuration not stated)
- Vaccinia Venus: -5.0%
- Vaccinia mCherry: -6.1%
> O=C(Nc1cccc(C(F)(F)F)c1)NC1CCCCC1
- Vaccinia Venus: ?
- Vaccinia mCherry: ·

Remaining list, next part:
| Structure | Vaccinia Venus | Vaccinia mCherry |
| --- | --- | --- |
| CC(C)N(Cc1nc(-c2ccc(Cl)cc2)no1)C(=O)CCC1CCCC1 | -13.4% | -11.9% |
| COC(=O)c1ccc(-c2nc(-c3cccs3)no2)cc1 | 7.0% | 10.3% |
| CC1=Nn2c(nc3sc4c(c3c2=O)CCCC4)SC1 | -20.3% | ? |
| CCCCCCCC(=O)N/N=C(\C)c1ccc(O)cc1O | -16.5% | -27.5% |
| CCOc1ccc(-c2nnc3ccc(SC)nn23)cc1 | -12.5% | i |
| CCCCn1c(N)c(N(CCOC)C(=O)C(C)N2C(=O)c3ccccc3C2=O)c(=O)[nH]c1=O (configuration not stated) | -4.0% | -16.0% |
| Cc1ccccc1NC(=O)c1ccc(NC(=O)C2CCCO2)cc1 (configuration not stated) | -8.3% | -10.2% |
| O=C(CN1C(=O)C2(SCC(=O)N2c2ccccc2)c2ccccc21)NCc1ccccc1Cl (configuration not stated) | 2.4% | -18.7% |
| CC1C(=O)OC2CCN3CC=C(COC(=O)C(C)(O)C1(C)O)C23 (configuration not stated) | 7.6% | 0.8% |
| CCC1CCCCN1C(=O)COC(=O)c1cccs1 (configuration not stated) | -7.7% | -4.9% |
| O=C(c1cccc2ccccc12)N1CCCCC1 | -3.5% | -3.5% |
| O=C(NCCN1CCC(n2c(=O)[nH]c3ccccc32)CC1)c1ccc(F)cc1 | 6.1% | -5.8% |
| COc1ccccc1NC(=O)C1CCC(CNS(=O)(=O)c2ccc3c(c2)CC(C)N3C(C)=O)CC1 (configuration not stated) | -26.3% | -27.6% |
| COc1ccccc1CNC(=O)C(=O)NCCC1CCCCN1S(=O)(=O)c1ccc(C)cc1 (configuration not stated) | ? | -25.6% |
| O=C(Cn1c(=O)sc2ccccc21)NCc1ccccn1 | -2.1% | 2.9% |
| CCOc1ccc(-c2noc(-c3csc([C@@H]4C[C@H](O)[C@@H](CO)O4)n3)n2)cc1 | -9.1% | i |
| CCOC(=O)c1cccc(C2=CC(=O)C[C@H](c3ccc(OC)cc3)C2)c1 | -4.1% | -6.2% |
| CCOC(=O)c1cnn(-c2nc(-c3ccccc3)cs2)c1C(F)(F)F | -24.3% | · |
| CCOC(=O)c1[nH]c2cc3c(cc2c1NC(=O)CN1CCN(CCO)CC1)OCO3 | -19.0% | ? |
| O=C1c2ccccc2C(=O)C1c1ccccn1 | -10.2% | -13.0% |
| CN1CC(C(=O)O)Cc2c1ccc1ccccc21 (configuration not stated) | -5.3% | ? |
| CCc1ccc(-n2nc(CO)c(C(=O)NC)n2)cc1 | -2.0% | -2.8% |
| Cc1cc(=O)n(C(C)C(=O)NCc2ccccc2Cl)c2c1c(C)nn2-c1ccccc1 (configuration not stated) | -12.1% | -14.1% |
| O=C(CCn1c(=O)[nH]c2ccccc2c1=O)N1CC=C(c2ccccc2)CC1 | -9.7% | -26.1% |
| Cc1ccc(S(=O)(=O)CC(=O)Nc2sc3c(c2C#N)CCCCC3)cc1 | -10.9% | -11.1% |
| COCCNC(=S)N/N=C/c1ccc(N2CCOCC2)cc1 | -18.1% | -24.4% |
| Cc1ccc(-n2c(=O)c3c(c4cc(C)ccc4n3C)n(CC(=O)N3CCCC3)c2=O)cc1 | -12.0% | -14.7% |
| CCc1nc2ccc(C(=O)N(C)CCN(C)C)cn2c1N(C)Cc1cc2ccccc2s1 | -2.8% | 11.7% |
| CCS(=O)(=O)c1nnnn1-c1ccccc1S(C)(=O)=O | ? | ? |
| CCCCS(=O)(=O)N1CCCC(C(=O)NCC2CCCO2)C1 (configuration not stated) | -19.3% | i |
| O=C(c1ccc([N+](=O)[O-])cc1)N1CCN(Cc2ccccc2[N+](=O)[O-])CC1 | -2.1% | -12.4% |
| CCC1=C(OC(=O)N(CC)CC)N2C(=O)OC(=NCC(=O)OC)[C@]2(Cc2ccccc2)[C@H]2C1=CC[C@H]1C(=O)N(c3ccccc3)C(=O)[C@H]12 | -3.7% | -24.2% |
| CC(=O)c1ccc(OCCCC(=O)OCC(=O)Nc2ccc3[nH]c(=O)[nH]c3c2)cc1 | -3.3% | -24.4% |
| CCn1c(C(=O)NCc2ccc(OC)cc2)cc2sc(Cl)cc21 | 2.3% | -14.2% |
| Cc1cc(=O)n2nc(N3CCCC(C(=O)NCc4cccc(Cl)c4)C3)sc2n1 (configuration not stated) | -4.7%[7.34 µM] | -10.4%[7.34 µM] |
| CC1CCN(CCCCOc2ccccc2Br)CC1 | -3.7% | i |
| CCCCn1c(NCc2cccs2)nc2ccccc21 | -12.6% | -6.5% |
| CC1CCN(S(=O)(=O)c2ccc3c(c2)C(=NO)c2cc(S(=O)(=O)N4CCC(C)CC4)ccc2-3)CC1 | ? | 2.82µM* |
| O=C(c1ccc(COc2c(F)c(F)cc(F)c2F)o1)N1CCN(c2ccc(Cl)cc2)CC1 | 8.0% | 10.2% |
| C=CCc1ccccc1OCc1nc2ccccc2n1CC | -12.4% | -7.6% |
| Cc1cc(NC(=O)c2ccccc2)ccc1NC(=O)Cc1ccccc1 | -15.0% | i |
| O=C(NCCc1ccccn1)c1cc(-c2ccccc2Cl)nc2ccccc12 | -0.8% | -13.3% |
| CC(=O)OCON[N+]([O-])=NC(C)C | -16.6% | -11.1% |
| CSc1nc(NCCOCCO)c2sc3nc(-c4ccco4)c4c(c3c2n1)CCC4 | ? | · |
| O=C(CN1CCCc2ccccc21)NC(=O)NC1CCCCC1 | -0.9% | -13.7% |
| Cc1ccccc1CNC(=O)C1CCCCN1S(=O)(=O)c1ccc(F)cc1 (configuration not stated) | -5.9% | -12.2% |
| Cc1cc(NC(=O)CN2CCCC(C)C2)n(-c2nc3ccccc3s2)n1 (configuration not stated) | -1.3% | -10.6% |
| O=C(Cc1nnc(NC(=O)Nc2ccccc2F)s1)NCc1ccccc1 | -5.7% | i |
| Cc1c(C(=O)N2CCN(C/C=C/c3ccccc3)CC2)oc2c(F)cccc12 | -12.5% | -21.9% |
| O=C(CN1C(=O)NC2(CCCCC2)C1=O)N1CCN(S(=O)(=O)/C=C/c2ccccc2)CC1 | -23.4% | -6.5% |
| CN1CCCCCC1=Nc1ccc([N+](=O)[O-])cc1 | -14.7% | -9.9% |
| CCNC(=O)C1(C)CCCN(Cc2ccc(-c3ccccn3)cc2)C1 (configuration not stated) | -10.9% | 24.2% |
| O=C(NCc1cccc(F)c1)c1ccc2nc(N3CCCCC3)sc2c1 | -6.4% | 0.8% |
| Cn1c(O)c(C=NC2CCN(Cc3ccccc3)CC2)c(=O)[nH]c1=O | -9.8% | -11.8% |
| COc1cc(C(=O)N2CCc3c([nH]c4ccccc34)C2c2ccccc2)cc(OC)c1OC (configuration not stated) | -9.0% | -14.4% |
| CC1(C(=O)NCc2ccc3c(c2)OCO3)CCN1CCc1ccccc1 (configuration not stated) | -1.3% | ? |
| O=C(CN1C(=O)CCSc2ccc(S(=O)(=O)N3CCCC3)cc21)Nc1ccccc1 | -3.6%[7.34 µM] | 1.2%[7.34 µM] |
| O=C(COC(=O)c1ccc(O)cc1)Nc1ccccc1 | 1.3% | -5.9% |
| CN1C[C@@H]2[C@@H]3C(=O)N(C)C(=O)[C@@H]3[C@](Cc3ccccc3)(C1=O)N2C(=O)c1ccccc1 | -1.3% | -10.0% |
| CC(=O)Nc1ccc2c(c1)CCC2=O | -6.8% | i |
